gsp antagonist = antagonists of gsp mutant (McCune-Albright syndrome); gsp-mutant cells, cAMP HTRF, 30 min; control for the full effect not named in the record; Potency, µM (titrated, usually from 76.9 µM), inactives show at the highest dose activity change, negative = inhibition, most hits filed as inhibitors; 340,000 tested, 0.4% active; AID 624288; active = falling curve of any shape with a large fitted effect; inconclusive = falling curve, mostly with a smaller effect; inactive = flat or rising curve; cell line not stated here;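 note: intracellular cAMP measured with PDE inhibitor Ro 20-1724 present during compound exposure; potency is the fitted concentration of half-maximal effect; % is set by controls: 0 for no effect and ±100 for the full control effect; nearly all actives have a fitted effect of over 65% in size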
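Cells, 2000/well, grown 16–24 h in DMEM 10% FBS with 0.5 mg/ml G418, then compounds plus […] (300 uM addition stock), 30 min at 37C. cAMP read by HTRF (cAMP-d2 and anti-cAMP antibody-K in lysis buffer) after 30 min RT.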
gsp agonist = gsp mutant agonism | gsp mutant cells, cAMP HTRF, 30 min; control for the full effect not named in the record | Potency, µM (titrated, usually from 76.9 µM), inactives show at the top dose activation (cAMP increase), hits mostly activators | 340,000 tested, 0.13% active; active = well fitted activation curve with a large enough effect; inconclusive = small, poorly fitted or top-dose-only effect, or another doubt; inactive = no such curve, though single readings can be large or run the other way; cell line not stated here;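 note: phosphodiesterase inhibitor Ro 20-1724 added with compounds to block cAMP breakdown; potency is the fitted concentration of half-maximal effect; nearly all actives have a fitted effect of over 60% in size; about a fifth of the inactives were tested at one dose only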
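Cells stably selected in G418 were plated at 2000/well, grown 16-24 hr, then given compounds in DMSO with the PDE inhibitor […] (300 uM solution added) for 30 min at 37C; cAMP was read by HTRF.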
ClpP mod = qHTS Assay for Activators of ClpP. purified B. subtilis ClpP, FRET peptide cleavage, 20 min. ATP-dependent Clp protease proteolytic subunit (Bacillus subtilis (strain 168)), P80244. 340,000 tested, 1.9% active. Potency, µM (top dose mostly 57.5 µM), for the others: top-dose activity change, negative = active; active = well fitted falling curve with a large enough effect; inconclusive = small, poorly fitted or top-dose-only effect; inactive = no such curve, though single readings can be large or run the other way; note: potency is the fitted concentration of half-maximal effect; the source files actives as falling curves though it sought activators and does not explain the sign; nearly all actives have a fitted effect of over 65% in size; many hits overshoot -100%
Target sequence (P80244 whole entry, looked up): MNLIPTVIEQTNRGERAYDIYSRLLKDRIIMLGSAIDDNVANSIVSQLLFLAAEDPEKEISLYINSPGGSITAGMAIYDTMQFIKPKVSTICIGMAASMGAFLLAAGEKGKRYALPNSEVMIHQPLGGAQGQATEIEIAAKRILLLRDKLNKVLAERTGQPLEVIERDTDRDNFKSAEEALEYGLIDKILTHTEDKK
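FRET quenching reversal measured ClpP activation: 10 microg/mL B. subtilis ClpP at pH 8 with the FRET-FV decapeptide, read at 430 nm after 320 nm excitation. The 20-min minus 0-min signal was scaled between DMSO/no-enzyme wells and ADEP (5.8 microM final).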
Sfp PPTase inh = blocks B. subtilis Sfp PPTase activity | Q9F4F7 | Biochemical Sfp PPTase activity, qHTS | Potency, µM, for the others: max response, negative = inhibition, hits mostly inhibitors | 310,000 tested, 3.5% active; active = well fitted inhibition curve with a large enough effect; inconclusive = small, poorly fitted or top-dose-only effect, or another doubt; inactive = no such curve, though single readings can be large or run the other way;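 note: the enzyme is Sfp with the accession as filed and its product quenches rhodamine fluorescence; potency is the fitted concentration of half-maximal effect; 0% = enzyme reaction without inhibitor and -100% = no enzyme wells; top concentration of the series not given in the record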
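Fluorescence-quenching assay: 15 nM Sfp-PPTase preincubated 15 min at room temperature with compound, then 5 uM rhodamine-CoA and 12.5 uM BHQ-2-labelled YbbR peptide added. Fluorescence (ex 525/em 598 nm) read at start and after 30 min; difference gives rate.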
Menin MLL FP FL = inhibitors of human menin-MLL interaction, wild-type MLL peptide; 290,000 tested, under 10 active; AID 1766; Fluorescence polarization, fluorescein-MLL peptide displacement from menin; FP activity change, % at 61.4 µM; inconclusive = falling polarisation curve, or a change in total fluorescence; inactive = total fluorescence flat and polarisation flat or rising; no compound was filed as active; the % refers to the polarisation; negative = inhibition;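 note: % of control where 0% means no effect; inhibitors lower the polarisation; unlabelled MLL peptide was the positive control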
TRPV1 PAM = human TRPV1 potentiation; TRPV1-expressing cells, Fluo-8 calcium influx, capsaicin EC20 potentiation; host cell line not named in the record; control for the full effect not named in the record; Q8NER1; potentiation, % at 8.33 µM; 320,000 tested, 0.02% active; AID 540277; active means potentiation above 80%; inconclusive means 30% to 80%; inactive means below 30%; note: 0% is about no effect
Target sequence (Q8NER1 whole entry, looked up): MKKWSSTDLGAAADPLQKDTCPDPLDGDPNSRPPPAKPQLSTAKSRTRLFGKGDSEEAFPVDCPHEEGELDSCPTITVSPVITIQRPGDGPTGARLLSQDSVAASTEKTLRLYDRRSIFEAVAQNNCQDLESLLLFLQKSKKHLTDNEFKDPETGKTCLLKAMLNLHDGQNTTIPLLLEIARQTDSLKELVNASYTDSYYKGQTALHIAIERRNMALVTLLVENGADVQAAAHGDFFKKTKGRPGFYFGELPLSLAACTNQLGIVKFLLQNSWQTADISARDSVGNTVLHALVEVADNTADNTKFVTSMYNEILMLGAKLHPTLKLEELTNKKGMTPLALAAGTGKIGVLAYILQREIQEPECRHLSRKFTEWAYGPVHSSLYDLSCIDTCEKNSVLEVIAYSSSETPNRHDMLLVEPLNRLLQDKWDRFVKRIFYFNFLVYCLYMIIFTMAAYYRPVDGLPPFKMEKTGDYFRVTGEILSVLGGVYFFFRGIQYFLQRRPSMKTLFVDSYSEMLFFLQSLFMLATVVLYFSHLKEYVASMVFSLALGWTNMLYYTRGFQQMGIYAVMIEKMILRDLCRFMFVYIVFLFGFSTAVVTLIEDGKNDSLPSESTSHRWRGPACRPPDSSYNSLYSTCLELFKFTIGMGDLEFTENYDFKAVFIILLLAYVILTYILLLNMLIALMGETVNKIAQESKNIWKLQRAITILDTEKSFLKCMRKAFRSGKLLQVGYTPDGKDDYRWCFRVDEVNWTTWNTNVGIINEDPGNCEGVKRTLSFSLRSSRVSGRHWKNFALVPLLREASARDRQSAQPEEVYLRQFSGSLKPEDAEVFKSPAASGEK
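Fluo-8 calcium influx in TRPV1-expressing cells, kinetic read (ex 480/em 520 nm). Compound added and read 3 min for agonist activity, followed by capsaicin at EC20 final and 2 min further read for enhancement.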
CtBP-E1A inh = blocks the CtBP interaction with E1A; AlphaScreen GST-E1A/His-CtBP binding, 1536-well; active compounds read low; control for the full effect not named in the record; activity change, % (no concentration beside the values); 340,000 tested, 0.49% active; AID 651724; in the data active means activity change below about -65%; inconclusive means about -30% to -65%; inactive means above about -30%; note: % is set by controls: 0 for no effect and ±100 for the full control effect
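Protein mix (5X: 125 nM each GST-E1A, His-CtBP) was incubated with pinned compound 2 h at 37 deg C in dark, in 50 mM Tris pH 8.0 buffer with 300 mM NaCl. Glutathione donor and nickel acceptor beads followed; AlphaScreen signal read after 1 h.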
Active calls of the source: *; ? = inconclusive; / = no result given; [ ] = dose if it differs, or a comment.

Each structure is followed by: gsp agonist	Sfp PPTase inh	TRPV1 PAM	Menin MLL FP FL	ClpP mod	gsp antagonist	CtBP-E1A inh
- Cc1ccccc1NCC(=O)c1ccc(Br)cc1
    -1%	45µM*	-2	1.8	-1.4%	10%	-6
- COc1ccc(C(=O)N2CCC(C(=O)N3CCN(Cc4ccccc4)CC3)CC2)cc1
    23%	1%	10	-2.9	-0.6%	1%	-7
- CSc1ccccc1OCc1cc(C(=O)NCC(C)(C)N2CCOCC2)no1
    -12%	7%	-12	-2.7	-3.6%	-4%	-16
- COc1ccc(O)cc1
    /	23%	/	0.3	-1.1%	-9%	4
- COc1ccccc1C(=O)CC(=O)C(=O)Nc1cccc([N+](=O)[O-])c1C
    ?	12%	3	-5.9	0.4%	-4%	1
- O=C(O)CCCCCNC(=O)C(=O)C1C(=O)Nc2ccccc21 (stereo not given)
    -24%	-5%	9	-0.4	0.6%	2%	9
- O=C(NCc1ccccc1)C(c1ccco1)N(C(=O)c1csnn1)c1ccccc1F (stereo not given)
    -20%	11%	4	-0.4	/	-7%	6
- COc1cc(/C=C2/C(=O)NN(c3ccc(C)c(Cl)c3)C2=O)cc([N+](=O)[O-])c1O
    -31%[inhibitor]	4%	-4	1.1	0.4%	-14%	/
- CCNC(=O)COc1cccc2ccccc12
    2%	5%	-20	1.0	-4.8%	-1%	6
- Cc1ccc(Cl)cc1NS(=O)(=O)c1ccc2oc(=O)ccc2c1
    -6%[15.4 µM]	1%	1	-2.1	/	-6%	-8
- S=C(NCC1CCCO1)N1CCN(c2ccccc2)CC1 (stereo not given)
    3%[15.4 µM]	-6%	-44	-4.3	/	9%	-22
- Cc1ccc(N2CC(C(=O)OCC(=O)Nc3ccccc3F)CC2=O)cc1 (stereo not given)
    -24%	13%	9	3.9	-0.8%	6%	-19
- c1ccc(-n2ncc3c(NC4CCCCCC4)ncnc32)cc1
    -29%	-17%	-8	4.3	-12%	-21%	1
- Cc1ccc(SCCC(=O)Nc2c(C)n(C)n(-c3ccccc3)c2=O)cc1
    ?	1%	4	-2.1	-2.0%	3%	9
- COCCn1ccc2c(OCC(=O)NCc3ccccc3)cccc2c1=O
    ?	/	9	/	-30%	1%	1
- COc1ccc(CNCc2cc(OC)ccc2OC)cc1
    -12%	-9%	-15	-6.3	-2.6%	10%	/
- COc1cc(C(=O)N2CCN(C/C=C/c3ccccc3)CC2)cc(OC)c1OC
    -4%	12%	-9	-3.4	-0.4%	-7%	-5
- O=C(CSc1nc2ccccc2nc1N1CCCC1)Nc1ccc(F)cc1
    -62%[inhibitor]	-1%	-8	7.4	-7.9%	-11%	17
- CSCCC(NS(=O)(=O)c1ccc(Cl)cc1)C(=O)OCC(=O)NC1CCCCC1 (stereo not given)
    9%	7%	6	1.3	2.2%	-4%	0
- CCOC(=O)c1nnn(-c2ccc([N+](=O)[O-])cc2[N+](=O)[O-])c1C
    2%	0%	-12	-4.5	0.8%	4%	-66*

Some of the entries above, reformatted:
| molecule | gsp agonist | Sfp PPTase inh | TRPV1 PAM | Menin MLL FP FL | ClpP mod | gsp antagonist | CtBP-E1A inh |
| --- | --- | --- | --- | --- | --- | --- | --- |
| Cc1ccc(N2CC(C(=O)OCC(=O)Nc3ccccc3F)CC2=O)cc1 (stereo not given) | -24% | 13% | 9 | 3.9 | -0.8% | 6% | -19 |
| c1ccc(-n2ncc3c(NC4CCCCCC4)ncnc32)cc1 | -29% | -17% | -8 | 4.3 | -12% | -21% | 1 |

Continuation.
Each structure is followed by: gsp agonist	Sfp PPTase inh	TRPV1 PAM	Menin MLL FP FL	ClpP mod	gsp antagonist	CtBP-E1A inh
- CCNC(=S)N(CCc1c(C)[nH]c2ccc(Cl)cc12)Cc1ccco1
    0%	21%	11	-1.1	-2.0%	-26%	0
- CC(C)(C)OC(=O)CNC(=O)c1[nH]cnc1C(=O)NC(c1ccccc1)c1ccccc1
    ?	13%	-15	0.4	1.3%	?	-4
- CCN(CC)C(=O)OCc1c(-c2ccccc2)ncc2ccccc12
    /	/	-16	/	-3.0%	-15%	4
- COc1cc(NC(=O)CCc2nnc3ccc(N4CCCC4)nn23)cc(OC)c1OC
    11%	5%	-2	-3.5	-2.9%	-5%	5
- COc1ccccc1N1CCN(C(=O)C(C)N(c2ccccc2)S(C)(=O)=O)CC1 (stereo not given)
    21%	1%	26	-1.1	0.5%	9%	4
- COC(=O)Cn1c(CCS(=O)(=O)c2ccc(Cl)cc2)nc2ccccc21
    25%	21%	-1	3.6	-13%	-1%	0
- C[C@H](O)[C@@H]1CN2CCc3c([nH]c4ccc(-c5ccc6c(c5)OCO6)cc34)[C@@H]2C[C@@H]1N(C)C(=O)Nc1cc(Cl)cc(Cl)c1
    -66%[inhibitor]	/	/	/	-4.6%	/	-29
- Cc1ccc(C(=O)/C=C/c2cn(CN3CCN(C)CC3)c3ccccc23)cc1
    -25%	?	-28	?	-2.1%	?	2
- CCN(CC)c1nc2ccccc2n2cnnc12
    0%	4%	2	0.4	-5.5%	13%	-7
- CCOC(=O)C1C(=O)NC(c2ccccc2)=NC1c1ccc(F)cc1 (stereo not given)
    -10%	24%	6	4.4	-4.7%	7%	-6
- COc1ccccc1NC(=O)CN1CCN(CC(=O)Nc2ccccc2Cl)CC1
    16%[15.4 µM]	17%	4	0.4	-0.5%	-9%	5
- Cc1ccc(Nc2nc(CSc3nnnn3-c3ccccc3)cc(=O)[nH]2)cc1
    -21%	-15%	15	1.3	-5.0%	-24%	-10
- CCN(C(=O)COC(=O)CCCc1nc2ccccc2s1)c1c(N)n(Cc2ccccc2)c(=O)[nH]c1=O
    9%	/	/	/	2.1%	12%	-6
- Cc1nccn1-c1c2c(c(C#N)c3nc4ccccc4n13)CCC2
    -31%[inhibitor]	-13%	24	6.4	?	4%	2
- O=C(CSc1nnnn1-c1ccccc1)Nc1ncc(Cc2cccc(Cl)c2Cl)s1
    -14%	-3%	-3	/	0.8%	0%	2
- O=C(NC1CCCCCCC1)NC1CCCCC1
    -14%	20%	-36	2.9	0.2%	-12%	8
- Cc1cc(C)cc(OCc2ccc(C(=O)O)o2)c1
    -33%[inhibitor]	20%	-21	6.8	-0.2%	2%	6
- Cc1cc(C)nc(SC2CCCCC2NS(=O)(=O)c2ccc(Cl)cc2)n1 (stereo not given)
    -15%	-7%	24	0.0	0.8%	-16%	-12
- O=C1C(=O)N(CC2CCCO2)C(c2ccccc2[N+](=O)[O-])/C1=C(/O)c1ccccc1 (stereo not given)
    19%	?	4	-4.2	-8.3%	7%	/
- CCOC(=O)N1CCC(NC(=O)C2CCN(Cc3nc(-c4ccc(CC)cc4)oc3C)CC2)CC1
    4%	/	/	/	-11%	8%	-1

Exported field by field: part of the list above.
CC(C)(C)OC(=O)CNC(=O)c1[nH]cnc1C(=O)NC(c1ccccc1)c1ccccc1
  gsp agonist: ? | Sfp PPTase inh: 13% | TRPV1 PAM: -15 | Menin MLL FP FL: 0.4 | ClpP mod: 1.3% | gsp antagonist: ? | CtBP-E1A inh: -4
CCN(CC)C(=O)OCc1c(-c2ccccc2)ncc2ccccc12
  gsp agonist: / | Sfp PPTase inh: / | TRPV1 PAM: -16 | Menin MLL FP FL: / | ClpP mod: -3.0% | gsp antagonist: -15% | CtBP-E1A inh: 4
CCOC(=O)N1CCC(NC(=O)C2CCN(Cc3nc(-c4ccc(CC)cc4)oc3C)CC2)CC1
  gsp agonist: 4% | Sfp PPTase inh: / | TRPV1 PAM: / | Menin MLL FP FL: / | ClpP mod: -11% | gsp antagonist: 8% | CtBP-E1A inh: -1

Carrying on:
Each structure is followed by: gsp agonist	Sfp PPTase inh	TRPV1 PAM	Menin MLL FP FL	ClpP mod	gsp antagonist	CtBP-E1A inh
- C=CCNC(=O)C1=NN(c2c(F)c(F)cc(F)c2F)C(=O)CC1
    -16%	10%	?	-15	/	0%	2
- O=C(COC(=O)CNC(=O)C1CCCCC1)Nc1ccc(F)c([N+](=O)[O-])c1
    17%	/	/	/	-3.6%	-8%	1
- COc1ccc(C2/C(=C(/O)c3ccccc3)C(=O)C(=O)N2c2ccccn2)cc1OC (stereo not given)
    21%[15.4 µM]	3%	3	-0.4	/	1%	1
- COc1ccc(N(CN2C(=O)c3ccccc3C2=O)C(=O)C(C)C)cc1
    -15%	9%	-12	2.7	-0.6%	-15%	-3
- O=C(CN(Cc1ccccc1)C(=O)CCC(=O)Nc1ccccn1)NCc1ccc(F)cc1
    0%	3%	4	-0.4	/	3%	5
- CN(C)c1ccc(NC(=S)c2ccc3ccccc3n2)cc1
    -10%	7.1µM*	-3	-3.5	3.0%	4%	/
- COc1ccc(Nc2c3c(nc4ccccc24)CCCC3)cc1OC
    -15%[15.4 µM]	-10%	-3	-0.3	/	3%	-20
- CCN(CC(=O)Nc1c(F)cccc1F)C(=O)CCC(=O)c1ccc(F)cc1
    -16%	/	1	/	-0.2%	-10%	-3
- CCc1nc2ccccc2c(C(=O)OCC(=O)NCc2ccc3c(c2)OCO3)c1C
    4%	9%	3	/	-0.4%	-15%	5
- C#Cc1ccc(C(=O)Nc2cc(C(N)=O)ccc2N2CCOCC2)cc1
    8%	-4%	12	1.1	-0.6%	-4%	4
- C/C(=N\NC(=O)C(=O)Nc1c(C)n(C)n(-c2ccccc2)c1=O)c1ccncc1
    5%[15.4 µM]	22%	3	-1.9	-0.7%	15%	6
- S=C(NCCc1ccc(Cl)cc1)NC1CCCCC1
    -6%[15.4 µM]	-10%	-5	-3.1	0.0%	-15%	4
- O=C(COC(=O)c1cccnc1Nc1cccc(C(F)(F)F)c1)NCCN1C(=O)CSC1=O
    -26%	-9%	?	0.7	-11%	-13%	2
- CCc1ccc(OCC(=O)OCC(=O)NCCNC(=O)COC(=O)COc2ccc(CC)cc2)cc1
    11%	18%	-41	/	-8.4%	-13%	5
- CC(C)C(=O)N[C@@H]1c2ccccc2CC[C@@H]1OCc1ccccc1
    /	/	/	/	-2.0%	-3%	1
- COc1cccc(N2C(=O)CN(Cc3cc(OC)c(OC)c(OC)c3)C2=S)c1
    -19%	-5%	0	2.8	/	-2%	4
- CCN(CC)CCNC(=O)c1ccccc1N
    11%	20%	-1	0.7	10µM*	10%	0
- CC(C)CN(C(=O)COC(=O)c1ccc2ccccc2c1)c1c(N)n(Cc2ccccc2)c(=O)[nH]c1=O
    17%[15.4 µM]	/	-8	/	/	7%	2
